# Assay outcomes from PubChem.
# UCH37 inh – inhibitors of human UCH37 deubiquitinase, primary screen, biochemical, Ub-AMC cleavage, fluorescence; Ubiquitin carboxyl-terminal hydrolase isozyme L5 (Homo sapiens), Q9Y5K5; purified proteasome/UCH37; inhibition, % (concentration not given with the values); 0.33% of 330,000 active; AID 588478, 2011;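 active = mean of two replicates above 20%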;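 also: 0% = compound-free wells with enzyme and 100% = wells lacking proteasome; stock transfer was 100 nL into about 20 µL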
# Target sequence (Q9Y5K5 whole entry, looked up): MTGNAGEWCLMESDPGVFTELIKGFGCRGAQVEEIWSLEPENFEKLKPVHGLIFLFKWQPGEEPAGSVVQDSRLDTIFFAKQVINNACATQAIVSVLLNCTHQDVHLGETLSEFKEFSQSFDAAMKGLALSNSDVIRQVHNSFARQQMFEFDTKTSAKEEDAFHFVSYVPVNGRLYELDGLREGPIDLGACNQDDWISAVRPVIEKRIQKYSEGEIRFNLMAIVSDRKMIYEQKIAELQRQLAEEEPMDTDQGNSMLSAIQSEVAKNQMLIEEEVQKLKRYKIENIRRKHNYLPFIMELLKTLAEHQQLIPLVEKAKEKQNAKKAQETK
#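 Reagent: Ub-AMC substrate; assay system: Proteasome-associated human UCH37 deubiquitinase; controls: no-proteasome and no-compound wells; read-out: % inhibition of Ub-AMC cleavage fluorescence; timing: 30 min preincubation with enzyme, 25 min cleavage at room temperature; signal: AMC fluorescence from Ub-AMC cleavage, excitation 355 nm, emission 460 nm; buffer or medium: Tris-HCl pH 7.4 plus ovalbumin, ATP-MgCl2, DTT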
# RanGTP-Imp inh – inhibitors of RanGTP-importin-beta interaction, primary screen, biochemical, FRET, CFP-Ran, YFP-importin-beta, homogeneous; Ran GTPase (GTP-bound) - importin-beta complex; cell-free CFP-Ran/YFP-importin-beta FRET ratio; inhibition, % (test concentration not listed); 1.1% of 300,000 active; AID 2216, 2009;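 active = most replicates above 15%; inconclusive = exactly half above 15%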;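 also: 0% = DMSO wells and 100% = Ran loaded with GDP instead of GTP; wells of about 40 µL received 100 nL stock; the first replicate is given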
# Vif TR-FRET – inhibitors of Vif binding to APOBEC3G peptide, primary screen, biochemical, TR-FRET, GST-Vif 1-94, biotin-A3G peptide, dose response retest (AID 1117319); 0.57% of 260,000 active; one-dose inhibition, %; IC50 in µM for titrated hits; TR-FRET GST-Vif / biotin-A3G peptide binding; higher % means a stronger effect; test concentration not given here; strong numbers were not always called active; Virion infectivity factor (Human immunodeficiency virus type 1 group M subtype B (isolate …;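 active = above the screen mean plus three standard deviations and confirmed in dose response; inconclusive = results disagree or hit not tested in dose response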;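 also: Vif residues 1-94 fused to GST binding biotinylated APOBEC3G peptide 110-148; 0% = full assay without inhibitor and 100% = GST in place of GST-Vif; retest series ran down from 100 µM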
# Ecoli growth – E. coli growth inhibition, primary screen, OD600; Escherichia coli growth, 23 h; hits give low values; OD600 absorbance (no concentration beside the values); 0.21% of 330,000 active; AID 1053175, 2014;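 active = OD600 absorbance below the run mean of sample wells minus 3.6 SD, in any replicate, cut at about 0.56 in these data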;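 also: stock transfer was 300 nL into about 60 µL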
# AF4-AF9 inh – inhibitors of AF4 peptide binding to AF9, primary screen, biochemical, AlphaScreen, biotin-AF4 peptide, FLAG-AF9, single point; 0.47% of 350,000 active; inhibition, % at 10 µM; AID 651704, 2012;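 active = every replicate reaching a set inhibition limit, whatever the replicate mean, cut at about 25% in these data; inconclusive = mean inhibition reaches that limit but some replicates miss it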;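 also: 0% = plate neutral control median and 100% = total signal loss; the record names both 10 and 1 µM as test concentration; the first replicate is given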
# Target sequence (P42568 whole entry, looked up): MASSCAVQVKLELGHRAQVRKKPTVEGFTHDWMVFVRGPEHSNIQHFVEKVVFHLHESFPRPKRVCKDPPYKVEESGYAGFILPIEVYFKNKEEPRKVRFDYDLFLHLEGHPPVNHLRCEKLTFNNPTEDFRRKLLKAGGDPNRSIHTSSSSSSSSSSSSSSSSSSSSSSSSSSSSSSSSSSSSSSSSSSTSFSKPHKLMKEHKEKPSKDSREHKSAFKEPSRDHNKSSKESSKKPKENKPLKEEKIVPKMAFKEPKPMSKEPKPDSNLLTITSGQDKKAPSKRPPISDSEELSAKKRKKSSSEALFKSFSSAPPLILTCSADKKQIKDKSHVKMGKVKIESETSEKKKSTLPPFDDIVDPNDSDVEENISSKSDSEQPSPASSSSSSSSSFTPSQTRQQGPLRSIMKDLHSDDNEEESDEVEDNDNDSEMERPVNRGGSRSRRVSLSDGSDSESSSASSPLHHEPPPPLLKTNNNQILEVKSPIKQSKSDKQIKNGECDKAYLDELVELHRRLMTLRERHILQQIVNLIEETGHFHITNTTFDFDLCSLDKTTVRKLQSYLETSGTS
# FGF22 binding – binders of human FGF22 protein, primary screen, FGF22 synaptogenesis inhibitor project, biophysical, thermal shift, single point; calls only at 9.99 µM; Fibroblast growth factor 22 (Homo sapiens), Q9HCT0; 1.5% of 340,000 active; recombinant FGF22 thermal shift, SYPRO orange fluorescence; percent of sucrose octasulfate shift, DMSO zero;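 active = melting point raised past a set limit in the mean and every replicate; inconclusive = no clear call; three in four hits are not shown here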
# Target sequence (Q9HCT0 whole entry, looked up): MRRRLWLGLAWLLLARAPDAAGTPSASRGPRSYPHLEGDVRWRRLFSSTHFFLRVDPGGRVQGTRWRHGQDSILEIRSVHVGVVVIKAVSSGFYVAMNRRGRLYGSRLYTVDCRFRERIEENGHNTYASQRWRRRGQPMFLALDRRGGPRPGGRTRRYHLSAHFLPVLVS
# HNF4A DNA FP – change in binding of human HNF4A to DNA, primary screen, biochemical, fluorescence polarization, FITC-DNA; 0.3% of 360,000 active; AID 1224865, 2016; 1 h; activity change, % at 10 µM; Hepatocyte nuclear factor 4-alpha (Homo sapiens), P41235; in the data active = activity change above about 30%, passing the limit was not always enough;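 also: controls were the assay level and a saturating level of protein; the project sought stronger binding though the title names inhibitors; some compounds called inactive have numbers as strong as hits; positive values seem to mean higher polarization but the record does not say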
# Starred values were filed as active, the others as inactive; i = inactive; ? = inconclusive; nt = no result given; & = joins results of further samples.
# Fields – AF4-AF9 inh	HNF4A DNA FP	RanGTP-Imp inh	UCH37 inh	Vif TR-FRET	Ecoli growth	FGF22 binding
> COc1ccc(CNC(=O)CSc2nnc(NC(=O)c3ccccc3F)s2)cc1
  -0.2	-3.0	-1.3	-6.9	-6.9%	0.726	i
> Cc1ccc(C)c(OCc2nnc(NC(=O)c3ccco3)s2)c1
  nt	-0.1	-0.1	5.1	-7.0%	0.721	nt
> COc1cc(CN2CCCC(CO)(Cc3cccc(Cl)c3)C2)cc(OC)c1O (stereo not drawn)
  2.3	-3.0	-1.8	1.0	nt	0.677	i
> COc1ccc(-n2nc3c(c2NC(=O)c2ccc4c(c2)OCO4)CS(=O)(=O)C3)cc1
  -2.7	-2.5	-0.6	-2.0	?	0.682	i
> C=CCn1cc(C(=O)c2cc(Br)ccc2O)cc(C#N)c1=O
  0.0	13.3	-1.7	1.2	24.5%	0.672	i
> COc1ccc(CN(Cc2cc3cc(C)ccc3[nH]c2=O)C(=O)N(C)C)cc1
  nt	-1.1	?	-14.5	5.8%	0.698	nt
> O=C(C1CCCCC1)N1C[C@@H](n2cc(C3CC3)nn2)[C@H](O)C[C@@H]1c1ccc(Cl)cc1
  -3.1	-1.7	nt	nt	1.0%	nt	nt
> COc1ccc(CCNC(=O)c2cn(C)c3ccc(S(=O)(=O)N4CCOCC4)cc3c2=O)cc1OC
  0.2	4.3	-2.5	5.2	8.3%	0.686	i
> CCn1c(SCc2c(F)cccc2Cl)nnc1-c1ccco1
  -29.9	0.9	-2.2	0.2	-2.9%	0.604	i
> COc1cc(Cl)cc(C(=O)O)c1OCC(=O)O
  -2.5	1.5	2.8	0.0	nt	0.715	i
> CCOC(=O)c1ccc(Oc2nc(SC)nc(N(C)C)n2)cc1
  nt	-1.1	0.5	3.2	-3.6%	0.684	nt
> Cc1ccc(CC(CC(=O)O)C(=O)NC2CCCCC2)cc1 (stereo not drawn)
  nt	-2.5	-4.0	6.4	0.5%	0.704	nt
> COc1ccc(S(=O)(=O)NC(C)C(=O)N2CCCC2)cc1Cl (stereo not drawn)
  -1.2	0.5	3.3	-0.5	nt	0.646	i
> CCOc1ccc2c(c1)OC(c1ccccc1)(C(F)(F)F)NC2=O (stereo not drawn)
  nt	-2.8	-11.5	3.5	6.2%	0.716	nt
> O=C(Nc1ncccc1O)C1CCN(S(=O)(=O)c2ccc3ccccc3c2)CC1
  -2.0	-1.1	nt	4.3	5.0%	0.657	i
> O=C(c1ccc2c(c1)OCO2)N1CCN(c2ccccc2F)CC1
  nt	3.5	-7.3	1.6	-0.5%	0.654	nt
> CC1(C)C(=O)OC(C(=O)c2ccccc2)C2(CCCCC2)C1=O (stereo not drawn)
  nt	-1.6	?	2.1	4.5%	0.7	nt
> O=C(CSc1nn(-c2ccc(F)cc2)c(=S)s1)NC1CCS(=O)(=O)C1 (stereo not drawn)
  0.3	0.5	-0.9	7.8	-8.2%	0.724	i
> N#CC(=C1CCCC1)c1nc(-c2cc3ccccc3oc2=O)cs1
  -37.9	3.6	2.1	-31.5	31.7%	0.69	i
> COc1cccc(CN(C(=O)c2ccco2)C(C(=O)NC2CCCC2)c2cccnc2)c1 (stereo not drawn)
  nt	4.0	5.8	-4.4	-8.0%	0.777	nt
> CC(=O)Nc1ccc(S(=O)(=O)Nc2ccccc2C(=O)N2CCOCC2)cc1
  -4.4	-0.6	0.4	1.7	-1.8%	0.683	i
> O=C(NCc1ccc2c(c1)OCO2)C(=O)NCC1OCCN1S(=O)(=O)c1ccc(F)cc1 (stereo not drawn)
  -1.3	-1.1	-0.8	-0.5	nt	0.71	i
> COc1ccc(C(=O)Nc2ccccc2-c2nnn(CC(=O)NCc3ccco3)n2)cc1
  nt	0.2	-2.0	-3.4	-7.4%	0.737	nt
> COc1ccc(S(=O)(=O)N(C)CC(=O)N2CCN(C)CC2)cc1Cl
  -2.0	-2.9	-1.2	0.1	nt	0.685	i
> Cc1cc(C(=O)NNC(=O)c2ccc(C)c([N+](=O)[O-])c2)c(C)o1
  -5.4	-1.1	nt	6.0	-0.2%	0.699	nt
> O=C1NCCN1CCNc1nc(NCc2ccccc2)nc2ccsc12
  -0.9	4.0	nt	nt	nt	nt	i
> O=C(N/N=C/c1ccc([N+](=O)[O-])o1)C1CCCC1
  0.6	-2.0	7.2	nt	nt	nt	i
> COc1ccc(/C=C/C(=O)NCC(=O)N/N=C/c2cc(Br)ccc2OCc2ccccc2)cc1
  nt	-0.7	-4.4	nt	-3.6%&18.4%	nt	nt
> Cc1cc(C(=O)NCc2ccccc2)no1
  4.8	-1.4	nt	1.7	-0.6%	0.705	i
> Cc1ccsc1CN1CCN(c2ccccn2)CC1
  nt	-6.9	0.7	2.9	-0.3%	0.689	nt
> O=C(NCC(c1ccco1)N1CCCCC1)c1cccc(S(=O)(=O)Nc2ccc(F)cc2)c1 (stereo not drawn)
  9.3	-1.9	nt	-1.3	14.2%	0.618	i
> Cc1nnsc1C(=O)N1CCN(c2ccc(F)cc2)CC1
  -0.5	-1.6	-0.5	0.2	-2.9%	0.661	i
> O=C(NC(NCCCN1CCOCC1)(C(F)(F)F)C(F)(F)F)C1CCCCC1
  nt	-0.1	1.8	3.3	0.0%	0.675	nt
> CCC(C)NC(=O)CSC1=Nc2ccccc2C2=NC(CCC(=O)NCc3ccco3)C(=O)N12 (stereo not drawn)
  nt	7.7	?	-15.4	0.7%	0.686	nt
> COc1cc(CN2CCC(CO)(CCOc3ccccc3)CC2)cc(OC)c1
  -12.1	-3.1	-1.5	5.1	nt	0.651	i
> CCOc1cc(/C=C(/C#N)C(=O)Nc2ccc(O)cc2)cc(Br)c1O
  nt	54.1*	8.0	0.4	-0.1%	0.759	nt
> CC(=O)Nc1ccc(S(=O)(=O)N2CCC(=O)Nc3ccccc32)cc1
  -0.6	-0.2	2.3	1.3	4.6%	0.663	i
> C=CC(C)(C)c1c2occc2c(O)c2ccc(=O)oc12
  -1.8	-2.1	nt	3.6	nt	0.676	i
> O=C(NCCCN1CCOCC1)c1cccc(S(=O)(=O)Nc2ccc(F)cc2)c1
  -0.9	1.1	nt	0.2	7.7%	0.628	i
> C/C(=N\Nc1ccc2nncn2n1)c1ccccn1
  -3.2	5.2	-4.0	nt	6.2%	nt	nt
> CCc1cccc(CC)c1NC(=O)C[n+]1cccc(C(N)=O)c1
  -0.6	1.1	0.6	1.4	-5.6%	0.66	i
> COc1cccc(NC(=O)c2cc3ccccc3o/c2=N\O)c1
  -0.6	2.1	2.5	nt	nt	nt	i
> CCCNc1nc(C)nc2c1cnn2CCc1ccccc1
  nt	-2.5	0.4	-0.1	?	0.676	nt
> CCCCCc1ccc(C2=NNC(=O)CC2)cc1
  -14.6	-4.0	7.7	2.2	nt	0.623	i
> Cc1cn([C@H]2C[C@H](O)[C@@H](CNC(=O)[C@H](N)Cc3cn(COCc4ccccc4)cn3)O2)c(=O)[nH]c1=O
  0.3	-1.6	nt	nt	-1.0%	nt	i
> CN(C(=O)Cc1c(C(=O)O)n(C)c2ccccc12)c1ccc(F)cc1
  -2.7	-2.1	-1.4	0.6	?	0.721	i
> COc1ccc(-c2nnn(CC(=O)N(Cc3ccccc3Cl)C(C(=O)NCC3CCCO3)c3ccco3)n2)cc1 (stereo not drawn)
  nt	-0.9	?	3.8	0.1%	0.739	nt
> Cn1c(=O)c2cc(NC(=O)CC(C)(C)C)ccc2n1-c1ccccc1F
  -2.0	5.9	nt	nt	nt	nt	i
> Cc1ccc(NC(=O)Cn2cc(C(=O)C3CC3)c3ccccc32)c(C)c1
  0.7	0.8	2.5	3.8	-7.1%	0.697	i
> CCn1c(=S)sc2c(=O)n(CC(=O)Nc3ccccc3OC)c(C)nc21
  -0.1	2.0	2.6	4.9	nt	0.65	i
> O=C(O)c1cccc(NC2=C(Cl)C(=O)c3ccccc3C2=O)c1
  -2.6	1.9	1.5	46.0*	nt	0.707	i
> COCCNC(=O)C1=NOC(Cn2cc(C#N)c(=O)n(C)c2=O)C1 (stereo not drawn)
  -0.3	3.8	-0.1	0.6	8.8%	0.656	i
> CC(C)CCNC(=O)COc1ccc(C(=O)c2ccccc2)cc1
  -1.7	-0.1	0.6	1.3	-0.3%	0.634	i
> O=C(Nc1nc2ccccc2s1)c1cc(-c2ccco2)nc2ccccc12
  2.9	-0.5	0.3	-128.7	nt	0.703	i
> Cc1c(O)ccc(C(=O)COc2ccccc2F)c1O
  nt	2.9	-3.5	3.1	-3.0%	0.671	nt
> Cc1ccc(CS(=O)Cc2ccc(C(=O)N3CCN(c4ccc(F)cc4)CC3)o2)cc1 (stereo not drawn)
  -6.3	2.6	3.0	5.4	nt	0.698	i
> N#Cc1cccc(NC(=O)Nc2cccs2)c1
  nt	6.8	3.1	1.6	22.9%	0.542*	nt
> COc1ccc(/C=N/NC(=O)c2ccoc2C)cc1O
  nt	3.9	?	nt	2.1%	nt	nt
> CCCn1c(N)c(N(CCOC)C(=O)c2ccc(S(=O)(=O)N3CCOCC3)cc2)c(=O)[nH]c1=O
  2.2	-1.5	nt	3.6	nt	0.638	i
> CCCC1/C(=N/O)CC(c2ccccc2)NC1c1ccccc1 (stereo not drawn)
  -14.1	-1.9	-3.1	nt	30.6%	nt	i

# (cont.)
# Fields – AF4-AF9 inh	HNF4A DNA FP	RanGTP-Imp inh	UCH37 inh	Vif TR-FRET	Ecoli growth	FGF22 binding
> CC(C)(C)c1cnnn1-c1cccc([N+](=O)[O-])c1
  -0.6	3.0	6.5	3.9	?	0.686	i
> COc1cc(/C=N/NC(=O)c2cccnc2)ccc1OCC(=O)N1CCOCC1
  -7.4	-0.1	0.4	nt	23.4%	nt	i
> Cc1nn(-c2cccc3cccnc23)c(=O)c2ccccc12
  nt	0.0	6.0	2.6	1.6%	0.75	nt
> CC(=O)Nc1cccc(NC(=O)CS(=O)(=O)c2cn(CC(=O)N3CCCC3)c3ccccc23)c1
  -0.4	3.9	-3.3	-3.5	4.6%	0.722	i
> COc1ccc(N(C(=O)c2cccnc2)S(=O)(=O)c2ccc(F)cc2)cc1
  1.6	1.4	5.9	4.9	-10.4%	0.721	i
> COc1ccc(NCC(O)Cn2cnc3c2c(=O)n(C)c(=O)n3C)cc1 (stereo not drawn)
  4.3	0.0	-0.5	3.6	1.7%	0.683	i
> CCCCCCc1nnc(NC(=O)OCC)s1
  nt	0.3	2.9	5.1	3.1%	0.697	nt
> CCN1CCc2c(sc(NC(=O)c3ccc(S(=O)(=O)N(C)c4ccccc4)cc3)c2C(=O)NC)C1
  nt	27.1	9.5	6.5	nt	0.68	nt
> CCOC(=O)Cn1cc(/C=N/NC(=O)c2ccc(C#N)cc2F)c2ccccc21
  nt	-1.7	1.7	nt	-1.9%	nt	nt
> FC(F)(F)c1cccc(-c2cc3nc(NCCOc4ccccc4)ccn3n2)c1
  -33.2	6.0	nt	nt	nt	nt	i
> C=CCNC(=S)NNC(=O)COc1cccc(Cl)c1
  -2.4	-0.3	-4.6	1.5	1.8%	0.716	i
> COc1ccc(CNC(=O)CNC(=O)CNS(=O)(=O)c2ccc(C)c(C)c2)cc1
  -5.6	0.6	2.6	-0.1	nt	0.642	i
> Nc1nc(NC(=O)c2ccc(F)cc2)ns1
  0.7	-1.8	4.9	27.2*	nt	0.663	i

# Only part of the results is shown; rates above refer to the full screens.
